Source: PubChem (National Center for Advancing Translational Sciences (NCATS))
VDR inh = Inhibitors of the vitamin D receptor (VDR): qHTS; Vitamin D3 receptor (Homo sapiens), P11473; VDR-SRC2-3 peptide fluorescence polarization, 2 h; Potency, µM, for the others: max response, negative = inhibition, usual class: inhibitors; 0.93% of 400,000 active; active = well fitted inhibition curve with a large enough effect; inconclusive = small, poorly fitted or top-dose-only effect, or another doubt; inactive = no such curve, though single readings can be large or run the other way; note: series mostly up to about 120 µM
Target sequence (P11473 whole entry, looked up): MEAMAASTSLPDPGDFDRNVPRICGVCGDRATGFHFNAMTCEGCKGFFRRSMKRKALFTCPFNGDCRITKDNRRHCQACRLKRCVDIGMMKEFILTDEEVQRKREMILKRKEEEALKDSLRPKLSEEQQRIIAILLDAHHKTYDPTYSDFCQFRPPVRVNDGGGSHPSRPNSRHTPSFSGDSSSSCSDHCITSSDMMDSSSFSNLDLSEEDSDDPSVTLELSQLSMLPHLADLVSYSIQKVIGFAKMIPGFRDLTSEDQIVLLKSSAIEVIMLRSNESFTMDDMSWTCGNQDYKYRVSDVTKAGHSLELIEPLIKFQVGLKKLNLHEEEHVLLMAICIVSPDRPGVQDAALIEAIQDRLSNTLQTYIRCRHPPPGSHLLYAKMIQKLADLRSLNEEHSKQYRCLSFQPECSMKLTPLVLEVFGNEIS
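Inhibition of the VDR/SRC2-3 peptide interaction is quantified by fluorescence polarization. Compounds (23 nl, pintool) incubate with the reagents for 2 hours at ambient room temperature.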
The depositor's hits bear a star; ? = inconclusive; & = joins results of further samples; ! = a repeat was not active; [ ] = remark or other dose. % is set by controls: 0 for no effect and ±100 for the full control effect; potency is the fitted concentration of half-maximal effect. These rows are one share of the data; rates above refer to the full screens.

Start of the listing, in advance (5 entries):
No. | structure | VDR inh
1 | CC1CCSP(=O)(Oc2ccccc2)O1 (stereo not given) | -7%
2 | CC(C)OS(C)(=O)=O | 11%
3 | O=C(c1ccncc1)N1CCC2(CC1)CN(Cc1ccccc1)C2 | 13%
4 | O=C(COC(=O)Cc1ccccc1)Nc1cc(S(=O)(=O)N2CCOCC2)ccc1N1CCCC1 | -7%
5 | CCCCCCCCCCCCCCCC[n+]1ccccc1 | -5%&-10%&95%&47%

The list itself, previewed entries included:
No. | structure | VDR inh
1 | CC1CCSP(=O)(Oc2ccccc2)O1 (stereo not given) | -7%
2 | CC(C)OS(C)(=O)=O | 11%
3 | O=C(c1ccncc1)N1CCC2(CC1)CN(Cc1ccccc1)C2 | 13%
4 | O=C(COC(=O)Cc1ccccc1)Nc1cc(S(=O)(=O)N2CCOCC2)ccc1N1CCCC1 | -7%
5 | CCCCCCCCCCCCCCCC[n+]1ccccc1 | -5%&-10%&95%&47%
6 | CN1CCc2cc3c(c4c2C1Cc1ccccc1-4)OCO3 (stereo not given) | -5%
7 | C#CCN(C)[C@H](C)Cc1ccccc1 | -3%&-1%&-4%
8 | C[C@H]1[C@H](OC(=O)CCC(=O)NCc2ccc(C(=O)O)cc2)O[C@@H]2O[C@@]3(C)CC[C@H]4[C@H](C)CC[C@@H]1C24OO3 | 15%
9 | N#Cc1cc(F)c(N2CCNCC2)cc1Cl | -9%
10 | O=C(Nc1cccc(F)c1)N1CC2(CCN(C(=O)Oc3ccccc3)CC2)C1 | -7%
11 | O=c1c2ccccc2nc(CNCC2CCCO2)n1-c1ccc(F)cc1 (stereo not given) | 12%
12 | COc1nc(C)nc(NC(=O)NS(=O)(=O)c2ccccc2Cl)n1 | -8%
13 | CSc1nnc(OC(=O)N(C)C)n1-c1ccc(Cl)cc1 | -9%
14 | CSc1ccccc1NP1(=O)OCC(C)([N+](=O)[O-])CO1 (stereo not given) | -2%
15 | c1ccc2c(c1)[I+]c1ccccc1-2 | -6%
16 | O=C(c1ccc2c(c1)N(Cc1ccc(F)cc1)C(=O)c1ccccc1S2)N1CCC2(CC1)OCCO2 | 1%
17 | O=P(N1CCCCCC1)(N1CCCCCC1)N1CC1 | -10%
18 | CC12CCCCC1N(O)CN2O (stereo not given) | -6%
19 | OC1C2CN3CN(C2)CC1(c1ccccc1)C3 (stereo not given) | -9%
20 | O=C1NC(=O)N(c2ccccc2F)C(=O)/C1=C/c1ccc(Sc2nc3ccccc3[nH]2)o1 | ?
21 | CCOc1ccc(Cc2c(O)[nH]c(=O)[nH]c2=O)cc1 | ?
22 | CN1C(=O)C(=Cc2ccc(N3CCCCC3)o2)C(=O)N(C)C1=S | 9%
23 | Cc1cc(=O)oc2c(C)c(OCC(=O)N3CCN(Cc4ccc5c(c4)OCO5)CC3)ccc12 | -12%
24 | CC(C)(O)[C@H]1O[C@H]2CC[C@@]3(C)[C@@](O)(CC[C@H]4Cc5c([nH]c6ccccc56)[C@@]43C)C2=CC1=O | -9%
25 | NC(=O)CSc1nnc([C@@H](N)Cc2c[nH]c3ccccc23)o1 | -10%
26 | Cc1ccc(-n2c(/C=C/c3ccccc3)nc3ccccc3c2=O)cc1Cl | 17%
27 | Nc1nc(/C(=C/CC(=O)O)C(=O)NC2C(=O)N3C(C(=O)O)=CCSC23)cs1 (stereo not given) | 50µM*
28 | COC(=O)C1=C(c2cccc(C#N)c2)C[C@@H]2CC[C@H]1N2C(=O)NC(C)C | 9%
29 | CCC1COC(Cn2cncn2)(c2ccc(Cl)cc2Cl)O1 (stereo not given) | -13%
30 | CN1CCN(c2ccc([N+](=O)[O-])c(N)c2)CC1 | 19%
31 | CC1CN2c3ccc([N+](=O)[O-])cc3CC3(C(=O)N(C)C(=O)N(C)C3=O)C2C(C)O1 (stereo not given) | -10%
32 | Fc1ccccc1N1CCN(Cc2ccc3c(c2)OCO3)CC1 | 7%
33 | CCCCCC(=O)N[C@@H](c1ccccc1)[C@@H](O)C(=O)O[C@H]1C[C@@]2(O)[C@@H](OC(=O)c3ccccc3)C3[C@](C)(C(=O)[C@H](O)C(=C1C)C2(C)C)[C@@H](OC1OCC(O)C(O)C1O)C[C@H]1OC[C@@]31OC(C)=O (stereo not given in full) | -5%
34 | O=c1cccc2n1CC1CC2CN(CC(O)CN2CC3CC(C2)c2cccc(=O)n2C3)C1 (stereo not given) | -8%
35 | O=c1[nH]c(=O)n(-c2ccc(F)cc2)c(O)c1/C=C1\C=Nc2ccccc21 | 17%
36 | CC(=O)O[C@H]1C2[C@@H](OC(=O)Cc3ccccc3)[C@@H](C)C[C@]2(OC(C)=O)C(=O)/C(C)=C/[C@@H]2[C@H](CC[C@@]13CO3)C2(C)C (stereo not given in full) | 11%
37 | CC(C(=O)c1cn(C)c2ccccc12)c1ccccc1 (stereo not given) | 12%
38 | COCCNC(=O)c1ccc(N2CC3CC(C2)c2cccc(=O)n2C3)c([N+](=O)[O-])c1 (stereo not given) | -3%
39 | COc1ccc(CCNCc2c(OC)ccc3ccccc23)cc1 | -17%
40 | COc1ccc2c(c1)c(C(=O)CN1CCC3(CC1)OCCO3)c(C)n2Cc1ccccc1 | -1%
41 | C[C@H](N)C(=O)N[C@@H](C)C(=O)N[C@@H](Cc1ccccc1)C(=O)CCl | ?
42 | CN=C1CN(O)C(c2ccccc2)=c2cc(Cl)ccc2=N1 | 3%
43 | Cc1ccsc1C(=O)C1CCCN(Cc2ccn[nH]2)C1 (stereo not given) | -11%
44 | CCC(C)C1N=C(c2ccccc2)c2cc(Cl)ccc2N(CC(=O)NCc2ccco2)C1=O (stereo not given) | 15%
45 | Clc1cccc(Cl)c1Cl | -14%

Later entries.
nr	SMILES	VDR inh
46	CC[C@H]1CN2CC[C@@]3(C(=O)Nc4ccccc43)[C@@H]2C[C@@H]1/C(=C\OC)C(=O)OC	-21%
47	CC(C)(C)OC(=O)C(Br)CCBr (stereo not given)	-1%
48	O=C(CNC(=O)OCc1ccccc1)Nc1ccc(Br)cc1C(=O)c1ccccc1	11%
49	Clc1ccc(Cl)cc1	12%
50	CCN(CC)/[N+]([O-])=N/O	7%
51	CCOC(=O)N1CCN(C(C)C(=O)c2c[nH]c3ccccc23)CC1 (stereo not given)	11%
52	CCOc1cc2c(cc1OCC)-n1cccc1C(c1c(O)cccc1OC)NC2 (stereo not given)	13%
53	Cc1cc(NC(=O)COC(=O)c2c(C)nn(Cc3ccccc3Cl)c2C)no1	10%
54	COc1cc2c(cc1OC)C(C(=O)N1CCC3(CC1)OCCO3)C(c1ccccc1F)N(C)C2=O (stereo not given)	17%
55	O=c1[nH]c(=O)n(Cc2ccco2)c(O)c1C=NC1CCN(Cc2ccccc2)CC1	-16%
56	C/C(=N\Nc1ccccc1)c1c(O)[nH]c(=O)[nH]c1=O	2%
57	CC1(C)C(c2ccccc2)=NC(c2cccnc2)=[N+]1[O-]	-6%
58	CN1C(=O)N(C)C(=O)C2(Cc3cc([N+](=O)[O-])ccc3N(C)C2)C1=O	15%
59	O=c1cccc2n1CC1CC2CN(C(c2ccccc2)c2sc3ncnn3c2O)C1 (stereo not given)	-5%
60	C/C(=N\NC(=S)Nc1ccccc1)c1c(O)n(C)c(=O)n(C)c1=O	?
61	COc1ccc(NC(=O)N2CCC3(CC2)CCN(C(=O)Oc2ccccc2)CC3)cc1	6%
62	CC(C)CCNC(=O)c1c(N)n(Cc2ccc3c(c2)OCO3)c2nc3ccccc3nc12	89µM*
63	O=S1(=O)N(Cc2ccc(F)cc2)CCCN1Cc1ccccc1Cl	8%
64	Cc1ccccc1O	5%
65	O=C(Oc1ccccc1)N1CCC2(CCN(Cc3ccccc3)CC2)CC1	-1%
66	CCCC[n+]1cc(=N)o[n-]1	-2%
67	CCc1nnc(NC(=O)CCc2nc(C3=CCN(C)CC3)no2)s1	-9%
68	CCOP(=O)(OCC)c1cccc(O)c1	-13%
69	CC(C)(C)NC[C@@H](O)COc1cccc2[nH]c(C#N)cc12	9%
70	CCS(=O)(=O)NCc1nnc2n1-c1ccc(Cl)cc1C(c1ccccc1)=NC2	-3%

Part of the list above, set out differently:
48) O=C(CNC(=O)OCc1ccccc1)Nc1ccc(Br)cc1C(=O)c1ccccc1
- VDR inh: 11%

63) O=S1(=O)N(Cc2ccc(F)cc2)CCCN1Cc1ccccc1Cl
- VDR inh: 8%

69) CC(C)(C)NC[C@@H](O)COc1cccc2[nH]c(C#N)cc12
- VDR inh: 9%

64) Cc1ccccc1O
- VDR inh: 5%

Continued.
nr	SMILES	VDR inh
71	COc1ccc(CCNCc2ccc3c(c2)n(C)c(=O)n3C)cc1	-6%
72	O=C(Nc1ccc(Cl)cc1C(=O)c1ccccc1)c1ccc(Br)o1	12%
73	CCn1cc(/C=c2/sc3n(c2=O)C2c4ccccc4OC(C)(N=3)C2C(=O)OC)c(C)n1 (stereo not given)	-9%
74	O=C1N(c2nncs2)CCN1[N+](=O)[O-]	-17%
75	O=C(Oc1ccccc1)N1CCC2(CC1)CCN(C(c1ccccc1)c1ccccc1)CC2	3%
76	Cc1cc(C)c(-n2c(O)c(/C=N/N3CCCCC3c3cccnc3)c(=O)[nH]c2=O)c(C)c1 (stereo not given)	8%
77	CC(=O)C1C2c3ccccc3OC1(C)N=c1s/c(=C/c3cn(C)nc3C)c(=O)n12 (stereo not given)	6%
78	CN(C)P(=O)(CCl)Nc1ccccc1 (stereo not given)	-1%
79	C=C(C)[C@]12C[C@@H](C)[C@@]34OC(Cc5ccccc5)(O[C@@H]1[C@@H]3C=C(COC(=O)Cc1cc(I)c(O)c(OC)c1)C[C@]1(O)C(=O)C(C)=C[C@@H]41)O2	0%
80	Cc1nc2ccc(Cl)cn2c1P(=S)(N1CCOCC1)N1CCOCC1	-4%
81	Cc1cccc(NC(=O)COC(=O)c2cc(C)n(C3CC3)c2C)c1	-7%
82	CCCC(C)C1(CC)C(=O)NC(=O)N=C1N (stereo not given)	-20%
83	COc1ccc(CCn2c(O)c(C=Nc3ccc(F)cc3)c(=O)[nH]c2=O)cc1OC	-5%
84	C/C(=N\N1CCCCC1)c1c(O)[nH]c(=O)[nH]c1=O	-15%
85	COc1ccc(CCNC(=O)COC(=O)Cc2ccccc2)cc1	-4%
86	CCOc1ccc(-c2cc(C)[n+](CCN3CCOCC3)c(-c3ccc(OCC)cc3)c2)cc1	1%
87	COc1ccc(C2CC(=O)Oc3c2c(=O)oc2ccccc32)c(OC)c1OC (stereo not given)	0%
88	CN(C)c1ccc(CCN2CCOCC2)cc1	-27%
89	Cc1ccccc1-n1c(C)cc(/C=C2/C(=O)NC(=O)N(Cc3ccco3)C2=O)c1C	-5%
90	CC12CN3CC(C)(CN(C1)C31CCOCC1)C2=O	7%
91	CCn1cc(C(=O)c2ccccc2)c2ccccc21	-9%
92	CCn1c(P(C)(=O)O)nc2cc(NC(=O)c3ccccc3F)ccc21	-1%
93	CCC1(c2ccccc2)C(=O)NC(=S)NC1=O	-9%
94	CCOc1cccc(CNCCc2c(C)[nH]c3ccc(OC(F)(F)F)cc23)c1O	-1%
95	CN(C)C(=O)Oc1ccc(Br)cc1C(=O)Nc1ccc(F)c(Cl)c1	5%
96	O=Cc1cn(Cc2ccc(Br)cc2)c2ccccc12	-7%
97	COc1cc(/C=C2\C(=O)NC(=O)N(c3ccc(C)cc3)C2=O)cc(OC)c1O	-28%
98	CCOc1ccccc1-n1c(O)c(C=Nc2c(C)n(C)n(-c3ccccc3)c2=O)c(=O)[nH]c1=O	-3%
99	CC1=C(C)CC2(C(=O)NC(=S)NC2=O)C(C)C1 (stereo not given)	-2%
100	O=c1[nH]c(O)c(N=Nc2cc(C(F)(F)F)ccc2Cl)c(=O)[nH]1	-24%
101	CCOc1cc2c(cc1OCC)-n1cccc1C(c1cc(OC)ccc1F)NC2 (stereo not given)	-4%
102	CCOC(=O)c1cccc(-[n+]2c(-c3ccccc3)cc(-c3ccccc3)cc2-c2ccccc2)c1	-6%
103	COC1(C)CC(c2ccccc2)c2c(c3ccccc3oc2=O)O1 (stereo not given)	-6%
104	CCc1c(C(=O)NN2C(=O)C3C4CCC(O4)C3C2=O)csc1C (stereo not given)	-13%
105	Cc1cc(C)cc(OCC(=O)Nc2ccc(Cl)cc2C(=O)c2ccccc2)c1	-22%
106	O=C(NC(=O)c1c(F)cccc1F)Nc1ccc(Cl)c(Oc2ncc(C(F)(F)F)cc2Cl)c1	12%
107	CC(C)n1c(O)c(C2c3cc(Cl)ccc3Oc3[nH]c(=O)n(C(C)C)c(=O)c32)c(=O)[nH]c1=O (stereo not given)	8.9µM*
108	COC(=O)C1=C(c2cccc(OCc3ccccc3)c2)C[C@@H]2CC[C@H]1N2C(=O)NCc1cc(C)oc1C(F)(F)F	-14%
109	O=S(=O)(c1ccc(F)cc1)N1CCCC1c1cccnc1 (stereo not given)	5%
110	O=C(NC(=O)c1ccccc1Cl)Nc1ccc(OC(F)(F)F)cc1	-2%
111	Cc1ccc2c(c1)C1C[N+](C)(CC(=O)c3ccc(Cl)cc3Cl)CCC1N2C(=O)c1ccc(F)cc1 (stereo not given)	-4%
112	O=C(O)CCC(=O)N1N=C(c2c(-c3ccccc3)c3cc(Cl)ccc3[nH]c2=O)CC1c1ccco1 (stereo not given)	?
113	CN1CCc2cc(O)cc3c2[C@H]1Cc1ccc(O)c(O)c1-3	4.5µM*!
114	C[C@]12CC(=O)CC1CCC1C2CC[C@@]2(C)C1CC[C@@H]2O (stereo not given in full)	39%[activator]
115	CC(=NCCN1CCCCC1)c1c(O)[nH]c(=O)[nH]c1=O	-11%
116	C/C=C/CC1(CC)C(=O)NC(=S)NC1=O	-15%
117	Cc1cccc(CN(C)C)c1OC(=O)N(C)C	1%
118	N#CCCn1cc(C(=O)NCc2ccccc2)c(-c2ccc3c(c2)OCCO3)n1	-2%
119	O=C(Cc1ccc(Cl)c(Cl)c1)N1CCCCC1CN1CCCC1 (stereo not given)	1%
120	COC(=O)C1=C(c2ccc(OC)c(OC)c2)C[C@@H]2CC[C@H]1N2C(=O)N1CCOCC1	14%
121	c1ccc2c(c1)c1cc[n+]2CCCCC[n+]2ccc(c3ccccc32)NCCCCCN1	6%
122	COc1cccc(CN2CCN(C(=O)COc3ccc4ccccc4c3)CC2)c1	21%
